# From PubChem BioAssay
# RE007 growth inh: less growth of the S. pombe RE007 Vpr strain; S. pombe RE007 Vpr strain, BacTiter-Glo ATP luminescence, 24 h; control for the full effect not named in the record; Potency, µM (top dose mostly 92.2 µM), for inactives: at the top dose activity change, negative = less growth; hit rate 0.21% among 360,000; active = well fitted falling curve with a large enough effect; inconclusive = small, poorly fitted or top-dose-only effect; inactive = no such curve, though single readings can be large or run the other way;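 further: nearly all actives have a fitted effect of over 50% in size; the assay follows cell death caused by Vpr and the record does not say whether a fall means rescue or toxicity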
#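 Fission yeast strain RE007, carrying one chromosomally integrated HIV-1 vpr copy, was seeded at OD 0.01 in PMG+AL medium with 23 nL pinned compound. After 24 h at 30 °C and 99% humidity, viability was read by BacTiter-Glo luminescence.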
# StopGo reporter: FMDV 2A StopGo reporter, luciferase signal | hit rate 1.2% among 410,000 | Potency, µM (titrated, usually from 57.9 µM), inactives show at the highest dose signal change, negative = less light | human cells with a luciferase reporter of 2A StopGo recoding; control for the full effect not named in the record | AID 1159524; active = well fitted falling curve with a large enough effect; inconclusive = small, poorly fitted or top-dose-only effect; inactive = no such curve, though single readings can be large or run the other way; tested in HEK293T cells; further: nearly all actives have a fitted effect of over 45% in size; luciferase light after 4 h
# * marks the source's active call; other numbers are inactive results; u = inconclusive; [ ] = another dose, or the depositor's remark. On the % scale 0 is the no-effect control and ±100 the full control effect; potency means the concentration at half of the fitted maximal effect.
SMILES,RE007 growth inh,StopGo reporter
CN(Cc1ccccc1)C(=O)c1cccc(NC(=O)Cc2cccc(NC(=O)C3CCN(C(=O)C4CCC4)CC3)c2)c1,-1.1%,-6.3%
COc1ccc(-c2cnc3c(NC=O)cc(-c4ccoc4)cn23)cc1OC,-7.0%[18.4 µM],-24.2%
Cc1ccc(Nc2nc(N)nc(N)c2N=O)cc1C,4.3%,7.0%
CCCCC(=O)N(C)c1c(C)nc2ccc(C(=O)Nc3cccc(OC)c3)cn12,0.6%,11.8%
CCc1nc2ccc(C(=O)N3CCN(C(=O)c4ccco4)CC3)cn2c1N(C)C(=O)C1CCCCC1,7.1%,-6.5%
Cc1cccc(OCCNc2ncccc2[N+](=O)[O-])c1,-7.6%,66.2%[activator]
CC1(C(=O)NS(=O)(=O)Cc2cccc(Cl)c2)CCN1C(=O)Cc1cccs1 (stereo not given),11.1%[18.4 µM],2.3%
C[C@H](CO)N1C[C@H](C)[C@@H](CN(C)C(=O)Nc2cccc3ccccc23)OCCCC[C@H](C)Oc2ccc(NS(=O)(=O)c3cn(C)cn3)cc2C1=O,-7.3%,3.0%
O=C(/C=C/c1ccccc1)Nc1cccc(C(=O)N2CCCC2)c1,-1.1%,-2.2%
C=C1CCN([C@@H](CC(C)C)C(=O)NCc2ccc(Cl)c(Cl)c2)S(=O)(=O)c2ccccc21,-4.6%,-3.5%
O=C(Nc1ccc(F)cc1)C(c1cccc(F)c1)N1CCN(c2cccc(C(F)(F)F)n2)CC1 (stereo not given),12.7%,-22.1%
COc1ccc(S(=O)(=O)N2CCOCC2)cc1C(=O)Nc1ccc(N2CCCCCC2)cc1,-5.0%,-12.7%
O=c1[nH]c(=S)[nH]c2c1C(c1ccc(Cl)cc1)OC(C1CCCCC1)C2 (stereo not given),1.4%,-14.9%
O=C(NCCCn1ccnc1)c1sc2cc([N+](=O)[O-])ccc2c1Cl,-6.6%,-9.8%
COc1ccc(NC(=O)c2ccncc2)cc1S(=O)(=O)N1CCCCC1,-6.0%,2.9%
Cc1ccc(OCCC(=O)Nc2cc(S(=O)(=O)N3CCOCC3)ccc2N2CCCC2)cc1,-0.4%,-17.2%
CCc1nc2ccc(C(=O)Nc3ccc(C(N)=O)cc3)cn2c1N(CCC(C)C)CCN(C)C,-18.0%,2.0%
C[C@@H]1CN([C@H](C)CO)C(=O)c2cc(-c3ccc(C#N)cc3)cnc2O[C@H]1CN(C)C(=O)c1ccccc1,17.5%,-23.8%
CC1(c2ccc(Cl)cc2)NC(=O)N(CC(=O)Nc2ccc3c(c2)OCO3)C1=O (stereo not given),0.8%,u
CCc1nc2ccc(C(=O)Nc3ccc(NC(C)=O)cc3)cn2c1N(C)CCC(C)C,-16.3%[18.4 µM],-27.8%
Cc1c(C(=O)NCc2cccc([N+](=O)[O-])c2)sc(=O)n1Cc1ccccc1F,-4.8%[18.4 µM],-7.1%
COc1ccc(-c2nc3c(C)cc(Br)cn3c2Cc2ccsc2)cc1OC,-23.6%,-27.8%
COc1ccc(NC(=O)c2cc(C3CCCCN3C(=O)c3ccc(NC(C)=O)cc3)on2)c(C)c1 (stereo not given),-9.1%,1.4%
CC(C)=CCc1c(-c2ccc(O)cc2O)oc2c3c(cc(O)c2c1=O)OC(C)(C)C=C3,-7.1%,u
COc1cc(-c2coc3c(C(=O)NCc4ccc(OC)c(OC)c4)cccc23)ccc1O,-15.3%,17.8µM*
COc1ncnc2c1ncn2CCCN1CCN(C(=O)C2CC2)CC1,-25.1%,0.0%
COc1ccc(Cc2c(-c3ccc(F)cc3)nc3c4ccccc4ccn23)c(C)c1,-16.7%,14.7%
Cc1cc(N2CCN(C(=O)c3[nH]c(C(F)(F)F)nc3-c3ccccc3)CC2)c2ccccc2n1,u,-21.1%
COCCn1c(SCC(=O)Nc2cc(C)on2)nc2c([nH]c3ccccc32)c1=O,-5.0%,-10.9%
Cc1nc2ccc(Br)cc2c(=O)n1Cc1cccs1,-11.4%,15.6%
CCCCC1Cc2[nH][nH]c(=O)c2C(c2ccc(Cl)cc2)O1 (stereo not given),-25.0%,-22.7%
C[C@@H]1CN([C@@H](C)CO)C(=O)CCCn2nncc2CO[C@@H]1CN(C)C(=O)NC1CCCCC1,-8.5%,0.0%
O=C(c1ccc([N+](=O)[O-])s1)N1CCN(c2ncccn2)CC1,-15.7%,0.0%
CC1(C)CC(=O)C=C(c2ccc(COC(=O)c3cc(F)cc(F)c3)cc2)C1=O,-0.1%,-33.2%
CCC(=O)N1CCCC1(C)C(=O)Nc1cccc(Oc2ccccc2)c1 (stereo not given),18.4%,5.4%
COC(=O)C1=C[C@@H](C(=O)OC)[C@@H]2C3=C(C(=O)[C@@]2(C)NC(=O)c2ccccc2)[C@H](C)C(C(=O)OC)=C(C(=O)OC)[C@@H]3C1,21.0%,-5.7%
Fc1cccc(Cc2c(C3CCCCC3)nc3ccc(Br)cn23)c1,-24.6%,-17.6%
CCOc1ccc(NS(=O)(=O)c2ccc(C(=O)NCC(c3ccco3)N3CCCCC3)cc2)cc1 (stereo not given),4.2%,-4.4%
CCOc1ccc(NC(=O)CSc2nc3ccsc3c(=O)n2Cc2ccc(C(=O)O)cc2)cc1,-12.8%,-16.8%
COC(=O)C1=C(c2cc3ccccc3s2)C[C@@H]2CC[C@H]1N2C(=O)NC1CCCCC1,14.4%,u
Cc1ccc(-c2c(N)nc3ncccn23)cc1,7.2%,2.4%
CCc1c(C2(O)CCCCC2)[nH]c2ccc(C(=O)OC)cc12,-2.6%,14.9%
CCO[C@@H]1OC(C(=O)NC2CC2)=C[C@H](C2CCCCC2)[C@H]1CCCO,128.7%,-14.8%
Cn1cccc1C1C=C(c2ccc(C(C)(C)C)cc2)Nc2ncnn21 (stereo not given),2.0%,-57.6%
C[C@@H]1CN([C@H](C)CO)C(=O)CCCn2cc(nn2)CO[C@H]1CN(C)S(=O)(=O)c1ccc(-n2cccn2)cc1,27.8%,-5.5%
CC[C@H](C)[C@H](NC(=O)OCc1ccccc1)C(=O)OCC(=O)N1CCN(c2ccc(F)cc2)CC1,-5.5%,u
O=C1C=C2C=C[C@@H]3CC2(O1)[C@H]1CCCCN31,0.3%[18.4 µM],u
Cc1ncc(C(=O)O)n1C(C)c1ccccc1 (stereo not given),14.5%,u
COC(=O)c1ccccc1COc1cccn2c(N(C)Cc3cccs3)c(C)nc12,-13.0%[18.4 µM],u
NC(=O)c1ncn([C@@H]2O[C@H](CNCc3ccc(OCC(=O)Nc4nccs4)cc3)[C@@H](O)[C@H]2O)n1,-4.8%,10.8%
Cc1ccc(Nc2nnc(C)c3ccccc23)c(C)c1,-0.2%,-0.5%
CCNC(=O)C1(C)CCN(C(=O)c2ccccc2C(F)(F)F)C1 (stereo not given),-5.0%,-1.8%
O=C1[C@H]2[C@H](C=CC[C@H]2C(=O)N2CCOCC2)CCN1Cc1ccc(Cl)c(Cl)c1,6.7%,-13.3%
COc1ccc(OC)c(NC(=O)COC(=O)c2ccc(S(=O)(=O)N3CCCCC3)cc2)c1,-14.6%,-0.9%
C[C@H]1CN([C@@H](C)CO)C(=O)CCCn2nncc2CO[C@@H]1CN(C)Cc1ccc(Cl)c(Cl)c1,40.4%,-19.5%
COC(=O)C(CCC(=O)CN1C(=O)c2ccccc2C1=O)N1C(=O)c2ccccc2C1=O (stereo not given),-1.6%,-12.7%
COCOCCn1cc(CN2CCS(=O)(=O)N(Cc3ccc(-c4ccncc4)cc3)C(C)C2=O)nn1 (stereo not given),-4.2%,u
CCCCCC(=O)N1C[C@H](n2cc(C3CC3)nn2)[C@@H](O)C[C@@H]1c1ccc(C)cc1,-7.5%,0.0%
COc1cccc(C(O)c2nc(-c3ccccc3)cs2)c1 (stereo not given),0.0%[18.4 µM],-1.0%
CN(Cc1ccccn1)C(=O)c1cc(COc2ccc(F)c(F)c2)on1,5.5%,2.6%

# The results go on.
SMILES,RE007 growth inh,StopGo reporter
COc1ccc(NC(=O)c2c[nH]c(=O)n(-c3ccc(C)c(C)c3)c2=O)c(OC)c1,-3.8%,-1.4%
CCOC(=O)C1(C)CCCN(C(=O)c2cc(C)oc2C)C1 (stereo not given),11.9%,-5.9%
COc1cccc(NC(=O)C2(C)CCN2C(=O)CCC2CCCC2)c1 (stereo not given),5.5%[18.4 µM],-18.6%
CC[C@H]1c2[nH]c3ccc(C(C)C)cc3c2[C@@H]2CCN3C(=O)CCC[C@H]1[C@H]23,-1.4%,u
CCOC(=O)C1CCCN(C(=O)c2cncc(Br)c2)CC1 (stereo not given),-3.4%[18.4 µM],-9.5%
C[C@@H]1CN([C@@H](C)CO)C(=O)CCCn2nncc2CO[C@@H]1CN(C)C(=O)Nc1ccc2c(c1)OCO2,-3.1%,-1.2%
C[C@@H]1CN([C@@H](C)CO)C(=O)CCCn2nncc2CO[C@H]1CN(C)C(=O)Oc1ccccc1,-8.3%,-7.8%
O=[N+]([O-])c1cc(-c2csc(NC(CO)c3nc4ccccc4n3CCOCCO)n2)ccc1Cl (stereo not given),4.6%,-11.5%
COc1ccc(C(O)c2nc(-c3ccc(OC)nc3)cs2)cc1 (stereo not given),19.9%,-10.7%
C#Cc1ccc([C@H]2C=C(C(=O)OCC=C)O[C@@H](OCCCCO)C2)cc1,14.0%,-8.4%
O=c1[nH]c2ccccc2n1C1CCN(C(c2nnnn2C2CCCCC2)C2CC2)CC1 (stereo not given),2.2%,-14.9%
O=C(NC1CCS(=O)(=O)C1)c1cc2c(=O)n3ccccc3nc2n1Cc1ccccc1 (stereo not given),-2.3%,-10.9%

# An excerpt from above in order of heavy-atom count, rising.
SMILES,RE007 growth inh,StopGo reporter
Cc1ccc(Nc2nc(N)nc(N)c2N=O)cc1C,4.3%,7.0%
Cc1ccc(Nc2nnc(C)c3ccccc23)c(C)c1,-0.2%,-0.5%
CCOC(=O)C1(C)CCCN(C(=O)c2cc(C)oc2C)C1 (stereo not given),11.9%,-5.9%
COc1ccc(NC(=O)c2ccncc2)cc1S(=O)(=O)N1CCCCC1,-6.0%,2.9%
CCCCC(=O)N(C)c1c(C)nc2ccc(C(=O)Nc3cccc(OC)c3)cn12,0.6%,11.8%
COc1cc(-c2coc3c(C(=O)NCc4ccc(OC)c(OC)c4)cccc23)ccc1O,-15.3%,17.8µM*
CCc1nc2ccc(C(=O)Nc3ccc(C(N)=O)cc3)cn2c1N(CCC(C)C)CCN(C)C,-18.0%,2.0%

# (continued)
SMILES,RE007 growth inh,StopGo reporter
CCCCn1nnnc1C(CCSC)N1CCC2(CC1)C(=O)NCN2c1ccccc1 (stereo not given),-8.0%,-8.2%
O=C(Nc1ccc(F)cc1)C(c1ccnc2ccccc12)N1CCN(CC(=O)N2CCCC2)CC1 (stereo not given),-17.5%,-6.6%
CC(C)CCN1CCC[C@]2(N[C@H](c3ccc(C(F)(F)F)cc3)[C@@H]3C(=O)N(Cc4ccccc4)C(=O)[C@@H]32)C1=O,4.8%,-16.6%
COc1ccc(CN2C(=O)C(CC(=O)NCCCN(C)C)CC(C(=O)N(C)C)=C2C)cc1 (stereo not given),0.2%,-20.9%
COc1cc(F)ccc1-c1cc(C(=O)NCc2cc(C(F)(F)F)cc(C(F)(F)F)c2)[nH]n1,3.3%,u
COc1ccc(COC[B-](F)(F)F)cc1,-16.7%,-23.4%
CC(C)(C)OC(=O)N(Cc1ccccc1)Cc1ccccc1OCc1cccc(NC(=O)c2ccccc2)c1,3.2%,-25.2%
COCc1cccc(-c2csc(C(O)c3ccc(F)c(F)c3)n2)c1 (stereo not given),12.3%,-13.3%
COc1cc(OC)nc(C(NC(=O)C2CCN(Cc3ccc(Oc4ccccc4)cc3)CC2)c2ccc(F)cc2)n1 (stereo not given),9.7%,-20.7%
COc1ccc(NC(=O)C2(C)CCN2CCOc2ccccc2)cc1OC (stereo not given),-0.6%[18.4 µM],-26.4%
O=C(Nc1ccc2c(c1)OCO2)c1csc([C@H]2C[C@H](O)[C@@H](CO)O2)n1,-12.2%[18.4 µM],-2.7%
CCN1CCN(c2ccc(S(=O)(=O)N3CCOCC3)cc2NC(=O)c2ccc(OCC(C)C)cc2)CC1,-1.4%,-7.3%
COc1ccc(-n2nnnc2C(c2cc3ccccc3o2)N2CCC(n3c(=O)[nH]c4ccccc43)CC2)cc1 (stereo not given),-4.9%,u
COC(=O)[C@@H](Cc1c[nH]c2ccccc12)NCc1cccc(B(O)O)c1,-20.5%,-23.0%
Cc1cn([C@H]2C[C@H](O)[C@@H](CNCc3cc(Cl)ccc3OCc3ccc(Cl)cc3)O2)c(=O)[nH]c1=O,-3.9%,-14.4%
O=S1(=O)CC(N2CCCCC2)CN1Cc1ccccc1 (stereo not given),-14.1%,-2.4%
CC(C)n1c(=O)nc(-c2ccccc2)c2cc3c(cc21)OCO3,2.0%,-6.5%
COC1OC(CO)C(N(C)C(C)=O)C1O (stereo not given),8.6%,-23.5%
Cc1ccc(Cn2c(C(CO)Nc3nc(-c4ccc(Cl)c([N+](=O)[O-])c4)cs3)nc3ccccc32)cc1 (stereo not given),24.9%,-12.9%
CCCNC(=O)c1cc(C2CCCCN2S(C)(=O)=O)on1 (stereo not given),1.3%,-14.0%

# In a second layout: results already given
Structure	RE007 growth inh	StopGo reporter
Cc1ccc(Cn2c(C(CO)Nc3nc(-c4ccc(Cl)c([N+](=O)[O-])c4)cs3)nc3ccccc32)cc1 (stereo not given)	24.9%	-12.9%
CCCNC(=O)c1cc(C2CCCCN2S(C)(=O)=O)on1 (stereo not given)	1.3%	-14.0%

# Some of the compounds tested; count on the stated rates, not on these rows.
